# RE007 growth inh: less growth of the S. pombe RE007 Vpr strain | S. pombe RE007 Vpr strain, BacTiter-Glo ATP luminescence, 24 h; control for the full effect not named in the record | Potency, µM (series often up to 92.2 µM), for the others: at the top dose activity change, negative = less growth | actives 0.21% (n = 360,000); active = well fitted falling curve with a large enough effect; inconclusive = small, poorly fitted or top-dose-only effect; inactive = no such curve, though single readings can be large or run the other way;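 note: % is set by controls: 0 for no effect and ±100 for the full control effect; nearly all actives have a fitted effect of over 50% in size; the assay follows cell death caused by Vpr and the record does not say whether a fall means rescue or toxicity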
#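 Fission yeast strain RE007, carrying one chromosomally integrated HIV-1 vpr copy, was seeded at OD 0.01 in PMG+AL medium with 23 nL pinned compound. After 24 h at 30 °C and 99% humidity, viability was read by BacTiter-Glo luminescence.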
# LASV entry inh: blocks Lassa virus binding to or entry into cells; Lassa virus pseudotype entry inhibition, cell reporter; control for the full effect not named in the record; Potency, µM (highest dose often 37.9 µM), inactives show at the top dose activity change, negative = inhibition, usual class: inhibitors; actives 1.2% (n = 300,000); active means well fitted inhibition curve with a large enough effect; inconclusive means small, poorly fitted or top-dose-only effect, or effect the other way; inactive means flat fitted curve, though single readings scatter; tested in HEK293 cells; note: % is set by controls: 0 for no effect and ±100 for the full control effect; nearly all actives have a fitted effect of over 50% in size; luciferase read-out
# Cruzain Triton: blocks cruzain activity in presence of Triton detergent; P25779; purified cruzain, Z-FR-AMC fluorescence, 0.01% Triton; actives 0.43% (n = 200,000); Potency, µM, inactives show max response, negative = inhibition, most hits filed as inhibitors; AID 1478; active = well fitted curve in the direction sought with a large enough effect; inconclusive = small, poorly fitted or top-dose-only effect, or another doubt; inactive = no such curve, though single readings can be large; an effect the other way counts as inactive or inconclusive;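 note: plate controls were neutral wells for no effect and buffer without enzyme for full effect; nearly all actives have a fitted effect of over 40% in size; top concentration of the series not given in the record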
# Target sequence (P25779 123-467 limits assumed): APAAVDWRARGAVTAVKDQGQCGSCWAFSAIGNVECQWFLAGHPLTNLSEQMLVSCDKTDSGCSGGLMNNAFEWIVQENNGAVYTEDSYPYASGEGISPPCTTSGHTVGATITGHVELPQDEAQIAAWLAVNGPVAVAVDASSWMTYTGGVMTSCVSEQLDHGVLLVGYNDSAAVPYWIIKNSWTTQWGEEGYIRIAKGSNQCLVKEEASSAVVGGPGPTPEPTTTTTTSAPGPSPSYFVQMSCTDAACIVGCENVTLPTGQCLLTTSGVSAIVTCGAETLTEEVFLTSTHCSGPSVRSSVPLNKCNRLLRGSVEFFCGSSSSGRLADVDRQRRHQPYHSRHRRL
#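 Purified cruzain (1.5 nM final) was preincubated with compounds for 15 min at room temperature in 100 mM sodium acetate pH 5.5, 5 mM DTT, 0.01% Triton X-100. Reaction started with 2 uM Z-FR-AMC; AMC fluorescence change over 60 s gave activity.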
# NS1 function inh: blocks influenza NS1 protein function | S. cerevisiae slowed by influenza A NS1, growth recovery by OD600 | actives 0.4% (n = 270,000) | AID 2326 | Potency, µM (titrated, usually from 46.1 µM), for the others: at the top dose activity, positive = more growth; note: actives are rising curves; nearly all actives have a fitted effect of over 50% in size
#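 OD600 was taken as the measure of yeast growth restored by compound in an NS1-expressing S. cerevisiae strain. Cells had been washed out of glucose medium and diluted 1:100 into galactose -URA medium, pH 6.0.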
# Cruzain noTriton: blocks cruzain activity in detergent-free assay. P25779. purified cruzain, Z-FR-AMC fluorescence, no detergent. Potency, µM, without a hit: max response, negative = inhibition, actives largely listed as inhibitors. actives 2.3% (n = 200,000); active = well fitted curve in the direction sought with a large enough effect; inconclusive = small, poorly fitted or top-dose-only effect, or another doubt; inactive = no such curve, though single readings can be large; an effect the other way counts as inactive or inconclusive;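 note: plate controls were enzyme without inhibitor for no effect and buffer without enzyme for full effect; nearly all actives have a fitted effect of over 40% in size; top concentration of the series not given in the record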
#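 Purified cruzain at 1.5 nM, pre-incubated 15 min with compound at room temperature in 100 mM sodium acetate pH 5.5, 5 mM DTT, 0.00005% Triton X-100. Reaction started with 2 uM Z-FR-AMC; AMC fluorescence increase over 60 s gives rate.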
# Marburg entry inh: Marburg virus entry inhibition. Potency, µM (titrated, usually from 37.8 µM), without a hit: at the top dose activity change, negative = inhibition, usual class: inhibitors. Marburg virus pseudotyped entry inhibition, cell reporter; control for the full effect not named in the record; about a third of the inactives were read at about 46 µM. actives 1.8% (n = 300,000); active = well fitted inhibition curve with a large enough effect; inconclusive = small, poorly fitted or top-dose-only effect, or effect the other way; inactive = flat fitted curve, though single readings scatter; tested in HEK293 cells; about a fifth of its hits are not listed in these tables; note: % is set by controls: 0 for no effect and ±100 for the full control effect; luciferase read-out
# StopGo reporter: lowers the luciferase signal of an FMDV 2A StopGo reporter; actives 1.2% (n = 410,000); Potency, µM (series often up to 57.9 µM), without a hit: at the top dose signal change, negative = less light; human cells with a luciferase reporter of 2A StopGo recoding; control for the full effect not named in the record; AID 1159524; active = well fitted falling curve with a large enough effect; inconclusive = small, poorly fitted or top-dose-only effect; inactive = no such curve, though single readings can be large or run the other way; tested in HEK293T cells; note: % is set by controls: 0 for no effect and ±100 for the full control effect; nearly all actives have a fitted effect of over 45% in size; luciferase light after 4 h
# SARS PLP yeast: inhibitors of SARS-CoV papain-like protease in yeast | Potency, µM (top dose mostly 32.9 µM), for inactives: at the top dose activity, positive = growth rescue | AID 485353 | actives 0.19% (n = 330,000) | S. cerevisiae expressing SARS-CoV PLpro, growth rescue; control for the full effect not named in the record; note: 0% is about no effect; nearly all actives have a fitted effect of over 55% in size; growth read by luminescence after 48 h
# Numbers without * were called inactive; ? = inconclusive; · = no result given; & = joins results of further samples; [ ] = remark or other dose. Unless noted, calls come from the whole dose curve; as a rule, active means well fitted rising curve with a large enough effect; inconclusive means small, poorly fitted or top-dose-only effect; inactive means no such curve, though single readings can be large or run the other way. Potency is the fitted concentration of half-maximal effect.
SMILES,RE007 growth inh,LASV entry inh,Cruzain Triton,NS1 function inh,Cruzain noTriton,Marburg entry inh,StopGo reporter,SARS PLP yeast
COc1ccc(CC(=O)Nc2ccc(NC(=O)c3ccccc3F)cc2)cc1,7%,6%,·,-2%,·,-2%,-15%,1%
O=C(/C=C/Nc1ccc(S(=O)(=O)Nc2ncccn2)cc1)c1ccc2ccccc2c1,0%,3%,·,-1%,·,8%[46.1 µM],-9%,0%
Cc1ccccc1NC1c2ccccc2C(=O)N1Cc1ccco1 (stereo not given),10%,·,-9.2%,20%,?,·,-4%,2%
Cc1[nH][nH]c(=O)c1[C@@H](c1ccccc1[N+](=O)[O-])C(C#N)C#N,-2%,·,·,5%,·,·,-8%,0%
COCCCNC(=S)Nc1cc2oc3ccccc3c2cc1OC,-15%,-14%[46.1 µM],·,-12%,·,?,10%,1%
CCNC(=O)c1c(N)sc2c1CCCCC2,·,·,-6.9%,-2%,-8%,2%,·,0%
CCc1[nH]nc(C(=O)NC2CCCN(Cc3ccccc3F)C2)c1C (stereo not given),-11%,·,·,-9%,·,·,4%,0%
NC(=O)COc1ccc(NC(=O)c2ccccc2-c2ccccc2)cc1,5%,2%,·,4%,·,4%,0%,0%
COc1cc2ncnc(NCc3cccs3)c2cc1OC,6%,·,·,-1%,·,·,46%[activator],1%
Cn1ncc(Br)c1C(=O)N1CCc2ccccc21,13%,3%,-1.8%,2%,-3%,6%,-7%,-14%
COc1ccc(-c2cc(-c3nnc(COC(=O)C4CC4)o3)c3ccccc3n2)cc1OC,3%,-17%,-5.5%,13%,?,-1%,?,20%
Cc1oc2c(c1C(=O)Nc1cccc(Br)c1)C1=NCCN1C=N2,·,7%[46.1 µM],-0.9%,·,-8%,·,-13%,·
CC(C)[C@H](NC(=O)OC(C)(C)C)c1nnc(S(=O)(=O)Cc2c(F)cccc2Cl)o1,-16%,-5%,3.5µM*,-177%,5µM*,-3%&-23%,35µM*,-12%
CCOC(=O)CCc1c(C)c2ccc(O)cc2oc1=O,-8%,1%,-13%,-27%,-10%,?,-4%,-5%
CCCCc1cc(=O)oc2c(CN3CCCC3)c(O)ccc12,-1%,21%,25µM*,6%,?,2%&2%,-2%,0%
CCOC(=O)Cn1c(=O)c2c(nc3n2CCN3c2ccc(C)cc2)n(C)c1=O,·,·,0.6%,1%,26%,3%,·,25%
CSc1ccc(/C=C/C(=O)c2ccc(O)cc2)cc1,-18%,-32%,-0.4%,-60%,2%,-20%,-36%,-48%
O=C(/C=C/c1ccc(F)cc1)N1CCN(c2ncccn2)CC1,9%,10%,·,·,·,-1%[46.1 µM],32%[activator],6%
COc1ccccc1C=NN=C(NN=Cc1ccccc1OC)NN=Cc1ccccc1OC,-1%,13µM*,·,·,·,?,?,·
COC(=O)C(NC(C)=O)(Nc1ccccn1)C(F)(F)F (stereo not given),-7%[3.69 µM],-2%,4.7%,-3%,2%,4%,6%,1%
CC(/C=C/c1ccc(OCc2ccccc2)cc1)=N\O,-9%,-1%,-2.6%,-9%,?,?,9%,4%
Cn1c(N)c(S(=O)(=O)NCc2ccc(Cl)cc2)c(=O)n(C)c1=O,16%,4%,·,·,·,-4%[46.1 µM],-5%,0%
CCCCN(C(=O)CN1CCOCC1)c1c(N)n(CC(C)C)c(=O)[nH]c1=O,3%,16%,-1.9%,-1%,17%,-1%,-22%,28%
COc1ccc(C(=O)Nc2ccccc2C(=O)NC(Cc2c[nH]c3ccccc23)C(=O)O)cc1 (stereo not given),9%,1%,·,-8%,·,27%[46.1 µM],20%,2%
COC(=O)c1sc(=S)n(-c2cccc(Cl)c2)c1N,6%,3%,-4.1%,-101%,2%,11%,18%,-4%
CCN(CC)c1ccc(C=NCCNS(=O)(=O)c2ccc(C)cc2)cc1,0%,-2%,·,-1%,·,1%[46.1 µM],7%,2%
CCC(C)(C)n1nnnc1C(C(C)C)N1CCC(C(N)=O)CC1 (stereo not given),11%,14%,0.6%,3%,-5%,1%,2%,-6%
O=C(Cn1ncn2c(cc3ccccc32)c1=O)NCCc1cccs1,6%,·,·,4%,·,·,-4%,-2%
O=c1c(Cc2ccccc2)c(O)nc2n1CCS2,15%,-13%,4.6%,-1%,-2%,-5%[46.1 µM],-16%,-4%
COc1cc(C(F)(F)F)c(C(=O)NCc2cccc(Cl)c2)cn1,5%,2%,·,-3%,·,-19%[46.1 µM],4%,0%
COc1ccc(-c2nc(N)n(C(=O)c3ccccc3Cl)n2)cc1,-1%,-18%,-5.1%,13%,-3%,-2%,-1%,-14%
O=C(NCCCn1ccnc1)C1CC(c2ccccc2Cl)=NO1 (stereo not given),-13%,3%,·,-2%,·,-1%[46.1 µM],6%,0%
COc1ccc(C(=O)NNC(=O)COc2ccc(Cl)cc2)c(OC)c1,-5%,10%,·,-2%,·,17%,-6%,3%
CCSC(=O)NC12CC3CC(CC(C3)C1)C2,16%,-25%,-1.8%,-16%,-2%,?,·,·
O=C(NCC(c1ccco1)N1CCc2ccccc2C1)c1ccc(Cl)cc1 (stereo not given),4%,21%,·,·,·,-30%,-7%,-9%
CCCCCCN(C(=O)CCCCCN1C(=O)NC(c2cccc([N+](=O)[O-])c2)C(C(=O)OCc2ccccc2)=C1C)C(C(=O)NCCCC)c1ccc(OCC(=O)OC)c(C(=O)OC)c1 (stereo not given),·,·,-3.9%,?,1%,·,·,-1%
O=C(Cn1ccccc1=O)c1cccs1,-9%,16%,1.4%,2%,-5%,2%,·,2%
CC(=O)c1c[nH]c2ccc(C)cc2c1=O,32%,-10%,-0.6%,-4%,-2%,?,-21%,4%
Cc1ccc(-n2c(C(C)n3nc(C)c([N+](=O)[O-])c3C)n[nH]c2=S)cc1 (stereo not given),-1%,10%,-1.0%,-2%,3%,9%,1%,-34%
CCOc1ccc(NC(=O)c2ccccc2NC(=O)c2cccnc2)cc1,2%,·,·,11%,·,·,-22%,1%
CCn1c(SCC(=O)Nc2nc(C)c(C)s2)nc2cccnc21,16%,-15%,-4.6%,9%,-3%,?,?,?
COc1ccc(-n2ncc3c2CC(C)(C)CC3NC(=O)c2ccc(OC)o2)cc1 (stereo not given),1%,·,·,10%,·,·,3%,17%
O=C(O)CSc1nc2ccccc2s1,1%,·,·,1%&8%,·,·,1%,0%&1%
COCCC(=O)Nc1ccc2c(c1)CN(C(=O)CSC)CC2,7%,8%[46.1 µM],·,1%,·,?,-8%,7%
O=S(=O)(Nc1ccccc1N1CCCCC1)c1ccc(Cl)s1,6%,-21%,-1.4%,7%,1%,?,?,-29%
COc1cc(/C=C/C(=O)OCC(=O)c2ccc(OC(F)F)cc2)ccc1O,-24%,?,·,·,·,-38%,32µM*,-38%
CCOc1ccccc1NC1=C(Cl)C(=O)N(Cc2ccccc2)C1=O,-2%,?,-2.2%,0%,1%,?,-14%,-16%
Cc1ccc(S(=O)(=O)NC(=O)Nc2nccs2)cc1,-6%,·,·,-4%,·,·,-4%,2%
COC(=O)C1CCCCN1C(=O)c1cccc(OC2CCN(C(=O)C3CC3)CC2)c1 (stereo not given),1%,-3%,·,5%,·,-29%,10%,3%
CCOC(=O)C1=C(C)Nc2nc(C)nn2C1c1ccc(C)cc1 (stereo not given),-4%,?,1.2%,-5%,-5%,12%,-3%,15%
COc1ccccc1C(=O)NCCC(=O)NCCC12CC3CC(CC(C3)C1)C2,36%,-17%,·,7%,·,-22%,0%,-1%
CCOC(=O)c1ccc(N2C(=O)c3n[nH]c(-c4cccs4)c3C2c2cccc(O)c2)cc1 (stereo not given),·,?,-11%,·,-1%,?,35µM*,·
CCOc1cc(/C=N/NC(=O)c2nn(C)cc2Br)ccc1OCc1ccccc1,-11%,-2%,-6.6%,-7%,16%,20%,-18%,4%
NC1=CC(=O)C(=O)c2ccccc21,-13%,?,·,·,·,?,40µM*,·
N#CCn1cnc2sc(-c3ccccc3)cc2c1=O,20%,11%,·,1%,·,?,44%[activator],-2%
O=C(c1cccc(S(=O)(=O)N2CCOCC2)c1)N1CCN(Cc2ccc3c(c2)OCO3)CC1,7%,1%,·,·,·,-7%,?,0%
Cc1oc2cc3oc(=O)c(CCC(=O)NCCN4CCOCC4)c(C)c3cc2c1C,1%,·,·,9%,·,·,20%,-10%
Nc1nc(SCC(=O)NCc2ccccc2Cl)[nH]c(=O)c1NC(=O)c1ccccc1F,3%,-2%,3.3%,13%,?,?,-14%,-5%
CCc1nc(Nc2ccc3c(c2)OCO3)c2oc3ccccc3c2n1,4%,-4%,-5.6%,-24%,-24%,?,?,2%
CN(CC(=O)NCc1ccc2c(c1)OCO2)S(=O)(=O)c1ccc(F)cc1,6%,7%[46.1 µM],·,?,·,4%[46.1 µM],2%,0%

# Later entries
SMILES,RE007 growth inh,LASV entry inh,Cruzain Triton,NS1 function inh,Cruzain noTriton,Marburg entry inh,StopGo reporter,SARS PLP yeast
CCS(=O)(=O)c1nc(S(=O)(=O)c2ccc(C)cc2)c(N2CCC3(CC2)OCCO3)s1,-7%,·,·,-19%,·,·,14%,6%
Cn1cnnc1Sc1cc(N2CCNCC2)ccc1[N+](=O)[O-],3%,2%,·,2%,·,-20%,-3%,1%
OC[C@H]1O[C@@H](n2cnc3c(Nc4ccccc4)ncnc32)[C@H](O)[C@@H]1O,15%,?,-2.0%,-2%,0%,?,36%[activator],-1%
CC(OC(=O)c1cc2sccc2n1C)C(=O)NCc1ccco1 (stereo not given),-5%,-17%,-3.5%,-46%,-8%,3%,·,-27%
O=C(CCc1ccccc1)NNC(=O)COc1ccc([N+](=O)[O-])cc1,17%,·,·,6%,·,·,-9%,1%
CN(C)Cc1c(C(=O)N/N=C/c2cccnc2)nnn1-c1nonc1N,2%,7%[46.1 µM],·,-2%,·,27%[46.1 µM],0%,-3%
O=C(NCC1(c2ccccc2)CCCC1)c1ccccc1,3%,-3%,-1.9%,-16%,-13%,5%,-18%,17%
